NOMO-1 viab: NOMO-1 AML cell viability reduction, primary screen, STK33 inhibitor project, CellTiter-Glo luminescence; NOMO-1 AML viability, 72 h; inhibition, % (no concentration beside the values); hit rate 7.5% among 37,000; AID 2330, 2010;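 active = most replicates above 80%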;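 note: wells of about 30 µL received 25 nL stock; 0% = median of vehicle wells and 100% = reference inhibitor level; the first replicate is given; inactives centre near 10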
An asterisk follows results filed as active. The list is partial; rates above refer to the full screens.

SMILES	NOMO-1 viab
CCOC(=O)Nc1ccc2c(c1)N(C(=O)CCN1CCOCC1)c1ccccc1S2	10
CCC(Cc1c(I)cc(I)c(N)c1I)C(=O)O (centres undefined)	15
NC(=O)NC(=O)Cc1ccccc1	27
CCCCOC(=O)c1ccc(N)cc1	-6
C[C@@H]1O[C@@H](OC[C@H]2O[C@@H](Oc3cc(O)c4c(c3)OC(c3ccc(O)cc3)CC4=O)[C@H](O)[C@@H](O)[C@@H]2O)[C@H](O)[C@H](O)[C@H]1O (some centres undefined)	2

Random excerpt: 2 records from the list.
SMILES	NOMO-1 viab
CCC(Cc1c(I)cc(I)c(N)c1I)C(=O)O (centres undefined)	15
C[C@@H]1O[C@@H](OC[C@H]2O[C@@H](Oc3cc(O)c4c(c3)OC(c3ccc(O)cc3)CC4=O)[C@H](O)[C@@H](O)[C@@H]2O)[C@H](O)[C@H](O)[C@H]1O (some centres undefined)	2

Screening data from PubChem BioAssay.
